High-throughput results: PubChem BioAssay, National Center for Advancing Translational Sciences (NCATS)
Cruzain inh Det = inhibitors of Trypanosoma cruzi cruzain with detergent; purified cruzain, Z-FR-AMC fluorescence, 0.01% Triton; hit rate 0.43% among 200,000; Potency, µM, for inactives: max response, negative = inhibition, hits mostly inhibitors;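 also: plate controls were neutral wells for no effect and buffer without enzyme for full effect; nearly all actives have a fitted effect of over 40% in size; top concentration of the series not given in the record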
Target sequence (P25779 123-467 limits assumed): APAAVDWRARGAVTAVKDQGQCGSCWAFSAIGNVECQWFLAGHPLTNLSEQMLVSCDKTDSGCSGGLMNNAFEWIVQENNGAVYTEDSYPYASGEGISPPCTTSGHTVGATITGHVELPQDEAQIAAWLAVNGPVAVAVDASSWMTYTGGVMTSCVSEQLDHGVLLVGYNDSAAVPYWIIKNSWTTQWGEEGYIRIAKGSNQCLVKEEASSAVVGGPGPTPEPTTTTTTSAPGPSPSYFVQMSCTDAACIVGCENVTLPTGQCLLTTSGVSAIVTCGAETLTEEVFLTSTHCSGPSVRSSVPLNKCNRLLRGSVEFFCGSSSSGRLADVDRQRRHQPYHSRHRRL
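In this qHTS format, compounds are incubated with 1.5 nM cruzain for 15 min at room temperature before 2 uM Z-FR-AMC is added. Release of AMC is followed at 360/450 nm, and progress is taken as the 60 s fluorescence difference.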
StopGo reporter = FMDV 2A StopGo reporter, luciferase signal; human cells with a luciferase reporter of 2A StopGo recoding; control for the full effect not named in the record; Potency, µM (series often up to 57.9 µM), without a hit: at the highest dose signal change, negative = less light; hit rate 1.2% among 410,000; active = well fitted falling curve with a large enough effect; inconclusive = small, poorly fitted or top-dose-only effect; inactive = no such curve, though single readings can be large or run the other way; tested in HEK293T cells; also: nearly all actives have a fitted effect of over 45% in size; luciferase light after 4 h
Cruzain inh noDet = inhibitors of Trypanosoma cruzi cruzain without detergent | P25779 | purified cruzain, Z-FR-AMC fluorescence, no detergent | Potency, µM, inactives show max response, negative = inhibition, usual class: inhibitors | hit rate 2.3% among 200,000 | AID 1476;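 also: plate controls were enzyme without inhibitor for no effect and buffer without enzyme for full effect; nearly all actives have a fitted effect of over 40% in size; top concentration of the series not given in the record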
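Detergent-free condition (0.00005% Triton X-100) in acetate buffer pH 5.5 with DTT. 1.5 nM enzyme and compound were pre-mixed 15 min, then 2 uM Z-FR-AMC substrate added; reaction progress from fluorescence change between first and third reads (60 s).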
Active calls of the source: *; ? = inconclusive; & = joins results of further samples; [ ] = another dose, or the depositor's remark. Unless noted, calls follow the shape of the dose curve; as a rule, active = well fitted curve in the direction sought with a large enough effect; inconclusive = small, poorly fitted or top-dose-only effect, or another doubt; inactive = no such curve, though single readings can be large; an effect the other way counts as inactive or inconclusive. Unless noted, % is scaled to controls: 0 for no effect and ±100 for the full control effect; potency is read from the fitted curve at half-maximal effect. Some of the compounds tested; count on the stated rates, not on these rows.

Screens in order: Cruzain inh Det	StopGo reporter	Cruzain inh noDet
- COc1cc(OC)c(C(C)=O)c(O)c1C
  4.8%	-5.6%	4.3%
- Cc1cccc(CNc2cc(-c3ccc(C(=O)N(C)C)cc3)ncn2)c1
  -2.9%	33.3%[activator]	4.3%
- N#CCCn1c(=O)c(CCc2ccccc2)nc2cnc(Nc3ccccc3)nc21
  1.2%	-4.6%	?
- COc1ccccc1CNc1ncnc2ccc(-c3ccccc3OC)cc12
  1.7%	?	-0.5%
- COc1cc(CCNC(C)=O)c(C(=O)/C=C/c2cccc(OC)c2OC)cc1OC
  4.2%	-18.0%	-6.1%
- N#CCCn1c(=O)c(-c2cccs2)nc2cnc(N3CCOCC3)nc21
  0.2%	-19.2%	4.5%
- CCCN(CCC)c1c([N+](=O)[O-])cc(C(F)(F)F)cc1[N+](=O)[O-]
  -0.4%&4.6%	-7.8%	-7.2%&-6.7%
- N#CCCn1c(=O)c(-c2ccccc2)nc2cnc(N3CCNCC3)nc21
  -23.9%	-11.0%	-22.7%
- O=C(c1csnn1)N1CCC2(CC1)CCN(c1cccc(-c3ccccc3)c1)CC2
  -7.0%	-28.2%	?
- COc1ccc2[nH]cc(CCNc3ncncc3-c3ccccc3OC)c2c1
  5.0%	-7.0%	7.6%
- COc1ncc2nc(-c3ccc(Cl)cc3)c(=O)n(C)c2n1
  3.2%	9.8%	1.8%
- N#Cc1cccc(NC(=O)N2CC3(CCN(C(=O)Oc4ccccc4)CC3)C2)c1
  2.7%	-20.2%	0.4%
- COC(=O)[C@@H](N)CSC/C=C(\C)CC/C=C(\C)CCC=C(C)C
  -0.2%	-8.0%	-3.8%
- COCC(=O)N1CCC2(CC1)CCN(C(=O)Nc1ccc(OC)cc1)CC2
  2.6%	-0.7%	5.5%
- COCCn1c(=O)c(-c2ccccc2)nc2cnc(Nc3ccccc3)nc21
  2.7%	-19.5%	4.2%
- COc1ccccc1CN1CCC2(CC1)CCN(C(C)=O)CC2
  1.0%	0.7%	-7.5%
- O=C(Cc1ccccc1)NO
  0.0%	-17.4%	0.6%
- CCNc1ncc2nc(-c3cc(F)cc(F)c3)c(=O)n(CCOC)c2n1
  -0.6%	-15.9%	?
- COCCn1c(=O)c(-c2cccc(Cl)c2)nc2cncnc21
  -5.0%	-17.7%	-3.6%
- Cc1nc2cnc(N3CCN(C)CC3)nc2n(Cc2ccc(F)cc2)c1=O
  -5.4%	4.1%	-4.8%
- N#Cc1cccc(-c2nccc(NCc3cccnc3)n2)c1
  11.5%	-15.9%	15.6%
- O=C(c1cc(C(F)(F)F)cc(C(F)(F)F)c1)N1CCC2(CC1)CN(c1ccccc1)C2
  -2.1%	-4.0%	2.2%
- CO/N=C(/C(=O)NC1C(=O)N2C(C(=O)O)=C(COC(N)=O)CSC12)c1ccco1 (configuration not stated)
  -10.1%	1.2%	-2.4%
- C[C@@H](O)CNC(C)(C)CC(=O)N[C@@H]1CCc2ccccc2N(Cc2ccc(-c3ccccc3-c3nn[nH]n3)cc2)C1=O
  0.3%	-18.4%	?
- CN(C)Cc1ccccc1-c1cc(NCc2cccs2)ncn1
  0.7%	-9.0%	0.3%
- O=C(c1csnn1)N1CCC2(CC1)CCN(c1ccncc1)CC2
  -16.6%	-3.2%	-22.2%
- O=C(c1ccco1)N1CCC2(CCN(Cc3ccncc3)CC2)CC1
  1.9%	-7.3%	2.1%
- O=C1CCCC2[C@@H]3CCC[N@+]4([O-])CCC[C@H](CN12)C34 (some centres not stated)
  3.9%	0.0%	-10.4%
- COC1C(O)C(C)O[C@H](OC2CC[C@@]3(C=O)C4CC[C@]5(C)C(C6=CC(=O)OC6)CC[C@@]5(O)C4CC[C@@H]3C2)C1O (some centres not stated)
  4.3%	?	14.4%
- COc1ccc(NC(=O)N2CCCC3(CCN(C(=O)c4ccco4)CC3)C2)cc1
  1.8%	1.4%	2.0%

Ordered by molecular weight (descending): 3 of the compounds above.
Screens in order: Cruzain inh Det	StopGo reporter	Cruzain inh noDet
- O=C(c1csnn1)N1CCC2(CC1)CCN(c1ccncc1)CC2
  -16.6%	-3.2%	-22.2%
- CCCN(CCC)c1c([N+](=O)[O-])cc(C(F)(F)F)cc1[N+](=O)[O-]
  -0.4%&4.6%	-7.8%	-7.2%&-6.7%
- N#Cc1cccc(-c2nccc(NCc3cccnc3)n2)c1
  11.5%	-15.9%	15.6%

The results go on:
Screens in order: Cruzain inh Det	StopGo reporter	Cruzain inh noDet
- C=CCSCC(N)C(=O)O (configuration not stated)
  3.4%	6.4%	0.0%
- CN(C)CCc1c[nH]c2ccc(Cn3cncn3)cc12
  0.4%	-0.2%	7.6%
- CCC(N)C(O)c1ccc(O)c(O)c1 (configuration not stated)
  -0.3%	-7.9%	3.0%
- COc1ccc(C(=O)N2CCC[C@@]3(CCN(C(=O)NC(C)C)C3)C2)cc1
  4.1%	1.8%	-5.9%
- O=c1c(-c2cc(F)cc(F)c2)nc2cnc(N3CCNCC3)nc2n1C1CC1
  -8.3%	-14.9%	1.9%
- O=C(Nc1cccc(F)c1)N1CCC2(CC1)CCN(S(=O)(=O)c1ccccc1)CC2
  0.0%	-26.8%	-17.5%
- COc1ccc(-c2nc3cnc(Nc4cccc(OC)c4)nc3n(C)c2=O)cc1
  -3.2%	-8.0%	?
- COc1ccccc1CNc1nc(-c2cccc(NS(C)(=O)=O)c2)nc2ccccc12
  -2.7%	-8.8%	?
- COc1ncc2nc(-c3ccc(Cl)cc3)c(=O)n(Cc3cccs3)c2n1
  4.5%	-19.7%	0.7%
- COc1ccc(-c2nc3cnc(OC)nc3n(C[C@H]3CCCO3)c2=O)cc1
  -7.8%	-8.9%	6.4%
- Clc1ccc(CO/N=C(\Cn2ccnc2)c2ccc(Cl)cc2Cl)c(Cl)c1
  -8.8%	-22.6%	12.2%
- COc1cc(OC)c(C(=O)CCCCN2CCC3(CC2)NC(=O)NC3=O)cc1NS(=O)(=O)c1ccc(C(F)(F)F)cc1
  -5.3%	-14.0%&-14.2%	3.8%
- C[C@@](N)(C(=O)O)c1ccc(P(=O)(O)O)cc1
  -1.4%	-0.1%	8.4%
- COc1ccc(NC(=O)N2CC[C@@]3(CCCN(S(C)(=O)=O)C3)C2)cc1
  -2.1%	-5.1%	13.9%
- CC1=CC(=O)CC(C)(C)C1(O)/C=C/C(C)=C\C(=O)O (configuration not stated)
  1.9%&2.0%&1.9%	-6.5%	-3.2%&6.1%&7.9%
- COc1ccc2c(c1)OCc1c-2oc2cc(OC)ccc12
  -3.2%	41.3%[activator]	8.0%
- COCCCCCCCCCCCC(=O)O
  1.9%	-0.7%[6.7 µM]	-7.6%
- COc1ccc2[nH]cc(CCNc3ncnc4ccc(-c5ccoc5)cc34)c2c1
  -6.2%	-27.6%	-28.3%
- COc1ccc2[nH]c(C(=O)c3ccccc3)cc2c1
  -8.9%	49.9%[activator]	5.2%
- O=C(Oc1ccccc1)N1CCC2(CCCN(c3ncccn3)C2)CC1
  -4.1%	-25.9%	-3.0%
- COc1ccc(NC(=O)N2CC3(CCN(C(C)=O)CC3)C2)cc1
  5.2%	-13.1%	-0.3%
- CC1=C(/C=C/C(=C/C=C/C(C)=C/C(=O)O)c2ccc(C)cc2)C(C)(C)CCC1
  -9.8%	34.9%[activator]	?
- COc1ccccc1CN1CCCC2(CCN(C(=O)c3cccn3C)CC2)C1
  4.5%	-0.4%	-3.6%
- COCCNc1ncnc2ccc(-c3cccc(OC)c3)cc12
  0.0%	-2.6%	0.1%
- COc1ccc(NC(=O)N2CC[C@@]3(CCCNC3)C2)cc1
  5.1%	-7.8%	9.1%
- O=C(O)[C@H]1C(=CCO)O[C@H]2CC(=O)N12
  0.0%	-10.3%	-0.2%
- COc1cccc(Cn2c(=O)c(-c3ccccc3)nc3cncnc32)c1
  -5.8%	-7.2%	-10.7%
- COC(=O)CC1C(C)(C)C2(O)OC34CC2C(=O)[C@@]1(C)C3CC[C@]1(C)C4=CC(=O)OC1c1ccoc1 (some centres not stated)
  0.4%	23.7%	29.2%
- O=c1c(-c2cccs2)nc2cnc(Oc3ccccc3)nc2n1C1CC1
  0.4%	-5.8%	13.0%
- CS(=O)c1ccc(-c2nc(-c3ccc(F)cc3)c(-c3ccncc3)[nH]2)cc1 (configuration not stated)
  -2.1%&-0.8%	-12.5%&-18.4%	-1.0%&-0.1%

Continued, starting with the last 7 of the part before.
Screens in order: Cruzain inh Det	StopGo reporter	Cruzain inh noDet
- COCCNc1ncnc2ccc(-c3cccc(OC)c3)cc12
  0.0%	-2.6%	0.1%
- COc1ccc(NC(=O)N2CC[C@@]3(CCCNC3)C2)cc1
  5.1%	-7.8%	9.1%
- O=C(O)[C@H]1C(=CCO)O[C@H]2CC(=O)N12
  0.0%	-10.3%	-0.2%
- COc1cccc(Cn2c(=O)c(-c3ccccc3)nc3cncnc32)c1
  -5.8%	-7.2%	-10.7%
- COC(=O)CC1C(C)(C)C2(O)OC34CC2C(=O)[C@@]1(C)C3CC[C@]1(C)C4=CC(=O)OC1c1ccoc1 (some centres not stated)
  0.4%	23.7%	29.2%
- O=c1c(-c2cccs2)nc2cnc(Oc3ccccc3)nc2n1C1CC1
  0.4%	-5.8%	13.0%
- CS(=O)c1ccc(-c2nc(-c3ccc(F)cc3)c(-c3ccncc3)[nH]2)cc1 (configuration not stated)
  -2.1%&-0.8%	-12.5%&-18.4%	-1.0%&-0.1%
- c1ccc(CNc2nc(-c3ccoc3)nc3ccccc23)cc1
  -3.5%	-0.4%	25.1µM*
- COc1ccc(C(=O)O)c(O)c1OC
  4.9%	5.5%	-1.6%
- COc1ccccc1-c1ccc2ncnc(NCc3ccccc3)c2c1
  -1.4%	-7.3%	-11.2%
- COCC(=O)N1CCC[C@@]2(CCN(C(=O)Nc3cccc(F)c3)C2)C1
  2.1%	6.3%	6.4%
- NC1=NCCCC1
  -4.8%	-9.2%	3.8%
- CC1O[C@@H](O[C@H]2C(Oc3cc(O)c4c(c3)OC(c3ccc(O)cc3)CC4=O)OC(CO)C(O)C2O)C(O)C(O)C1O (some centres not stated)
  -2.6%	-3.3%	-12.2%
- CS(=O)(=O)CCCCN=C=S
  -0.6%	-4.5%	-9.7%
- COc1ccccc1CNc1ncncc1-c1cccc(NS(C)(=O)=O)c1
  2.5%	-15.9%	5.6%
- CN(C)Cc1ccccc1-c1cc(N(C)C)ncn1
  -0.3%	-11.8%	2.7%
- O=C(Nc1ccccc1)N1CC[C@@]2(CCCN(C(=O)Oc3ccccc3)C2)C1
  4.1%	-4.5%	-9.1%
- C=CCc1cc(OC)c2c(c1OC)OCO2
  0.5%	-7.4%	2.9%
- CCC(C)C(=O)O[C@@H]1C[C@@]2(C)C(c3ccoc3)OC(=O)CC23OC2(C)O[C@@]14[C@@]1(C)C(CC(=O)OC)C5(C)CC1(O)C(O)(C5OC(=O)C1(C)OC1C)C(OC(C)=O)[C@@]34O2 (some centres not stated)
  -0.2%	-13.6%	?
- O=c1c(-c2cccc(F)c2)nc2cncnc2n1Cc1ccccc1
  -4.3%	-13.7%	-10.0%
- COc1ncc2ncc(=O)n(CCC#N)c2n1
  -2.0%	-1.8%	4.3%
- Cc1noc(C)c1C(=O)N1CCC2(CCCN(c3ccccn3)C2)CC1
  -0.5%	-2.3%	-17.4%
- NC(CO)Cc1ccccc1 (configuration not stated)
  1.0%	2.2%	-4.3%
- C[C@]12CCC3c4ccc(OS(=O)(=O)O)cc4CCC3C1CCC2=O (some centres not stated)
  -1.2%	-7.2%	-0.2%
- Cc1nc2cnc(N3CCOCC3)nc2n(Cc2cccs2)c1=O
  -1.0%	-9.0%	-6.5%
- Cc1cccc(CNc2cc(-c3ccccc3Cl)ncn2)c1
  -3.3%	-5.6%	1.1%
- O=C(c1cc(C(F)(F)F)cc(C(F)(F)F)c1)N1CCC2(CCN(Cc3nccs3)CC2)CC1
  2.0%	-17.3%	-0.3%
- COc1ccccc1CN1CC[C@@]2(CCCN(S(=O)(=O)c3ccccc3)C2)C1
  1.4%	2.8%	4.8%
- COc1ccccc1CNc1cc(-c2c(C)noc2C)ncn1
  4.0%	6.9%	0.9%
- NC1(c2ccccc2Cl)CCCCC1=O (configuration not stated)
  -3.1%	-7.4%	-2.4%
- CN(C)c1ncc2nc(-c3cccs3)c(=O)n(CCC#N)c2n1
  1.9%	-16.7%	-1.0%
- COC(=O)CC1[C@@]2(C)C[C@]34OC5(C)OC6(C7CC(=O)OC(c8ccoc8)[C@]7(C)CCC6(O5)[C@]13C)C(OC(C)=O)[C@]4(OC(C)=O)C2OC(C)=O (some centres not stated)
  1.5%	-7.2%	2.4%
- CN(C)c1ncc2nc(-c3ccccc3)c(=O)n(Cc3ccc(F)cc3)c2n1
  -1.4%	-11.6%	6.1%
- O=C1CC2OCC=C3CN4CC[C@@]56c7ccccc7N1C5C2C3CC46 (some centres not stated)
  2.9%	-5.6%	-3.0%
